Bioassay records: PubChem BioAssay, Vanderbilt University
GIRK2 activ: activators of human GIRK2 potassium channels; HEK293-GIRK2 thallium flux, Thallos fluorescence; actives 0.05% (n = 63,000); P48051; calls only for hits at 25 µM;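 active = among the strongest 0.2% of first-round signals and kept after retests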;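 also: first round at about 10 µM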
Target sequence (P48051 whole entry, looked up): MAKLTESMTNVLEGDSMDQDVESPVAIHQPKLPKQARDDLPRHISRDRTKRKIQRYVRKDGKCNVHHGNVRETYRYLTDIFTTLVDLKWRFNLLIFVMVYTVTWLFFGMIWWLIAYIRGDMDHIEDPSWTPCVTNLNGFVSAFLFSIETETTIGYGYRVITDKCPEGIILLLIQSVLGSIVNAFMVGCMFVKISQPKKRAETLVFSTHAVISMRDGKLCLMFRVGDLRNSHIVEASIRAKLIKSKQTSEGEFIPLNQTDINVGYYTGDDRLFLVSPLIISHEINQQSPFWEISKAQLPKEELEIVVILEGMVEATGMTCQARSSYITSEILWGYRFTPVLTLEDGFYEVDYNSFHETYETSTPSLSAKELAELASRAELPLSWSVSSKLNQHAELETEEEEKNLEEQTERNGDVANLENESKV
Calls only; i = inactive. Some of the compounds tested; rates above refer to the full screens.

SMILES	GIRK2 activ
Cc1ccc(-n2cc(C(=O)N3CCC(NC(=O)c4ccc(C#N)cc4)CC3)nn2)cc1C	i
O=C1CC(c2nc(-c3cccs3)no2)CN1Cc1ccccc1 (centres undefined)	i
CC(C)c1cc(=O)[nH]c(-n2nc(-c3cccs3)cc2NC(=O)CCc2ccccc2)n1	i
Cc1c(C(=O)NCCc2csc3nc(-c4ccccc4F)nn23)cnn1-c1ccccc1	i
CCOc1ccc(Cc2nnc(Nc3ccc(OC)c(OC)c3)[nH]c2=O)cc1	i
CCCN1/C(=C/C=C/c2sc3ccccc3[n+]2CCC)Sc2ccccc21	i
O=C(NCCCc1ccccc1)Nc1cc(N2CCN(c3ccccc3)CC2)ncn1	i
CC(CCc1ccccc1)NC(=O)C(=O)Nc1c2c(nn1C(C)(C)C)CSC2 (centres undefined)	i
Cn1cc(CC(=O)N2CCC(Oc3ccccn3)CC2)c2ccccc21	i
O=C(Cn1cnc2c([nH]c3ccccc32)c1=O)NCc1ccc(C(F)(F)F)cc1	i
O=C(c1nc2ccccc2s1)N1CCC(Cn2cnc3ccccc32)CC1	i
O=C(Nc1cnoc1)c1ccc(Cl)s1	i
O=C(CN1C(=O)c2ccccc2C1=O)N1CCN(C2=NN=C(c3ccccc3)CS2)CC1	i
CN1CCN(c2oc(-c3ccc(S(=O)(=O)N4CCOCC4)cc3)nc2C#N)CC1	i
O=C1CCC(=O)N1c1ccc(S(=O)(=O)NCCc2cccs2)cc1	i
Cn1nc(CNC(=O)CSc2ccc(F)cc2)cc1-c1ccccn1	i
CNC(=O)Cc1csc(NC(=O)c2ccc(OCc3ccc4ccccc4n3)cc2)n1	i
O=C(Nc1nccs1)C1CCN(C(=O)NCc2cccs2)CC1	i
O=C(CCn1c(=S)[nH]c2c(oc3ccccc32)c1=O)NCc1ccc(F)cc1	i
Cc1nnc(C2CCN(C(=O)CC3CSc4nc(C)c(C)c(=O)n43)CC2)s1 (centres undefined)	i
COCCn1c(-c2nc(C(=O)Nc3cccc(C(C)=O)c3)cs2)cc2ccccc21	i
O=C(Cn1c(=O)n(CCCCC(=O)NC2CCCC2)c(=O)c2ccccc21)Nc1ccc(Cl)cc1	i
O=C(CCC(=O)N1CCC(Oc2ccccn2)CC1)c1ccccc1	i
COc1ccc(Br)cc1S(=O)(=O)NCCCn1ccnc1	i
Cc1ccc(NC(=O)Cn2c(-c3ccc(F)cc3)nc3c(c2=O)CCN(Cc2ccccc2)C3)cc1	i
O=c1ccn(Cc2nnc(SC/C(=N\O)c3ccccc3Cl)o2)c(=O)[nH]1	i
CSc1ccccc1CN1CCC(CNC(=O)C2CC=CCC2)CC1 (centres undefined)	i
CC(Oc1ccccc1)C(=O)NCC1CCN(C(=O)Oc2ccccc2)CC1 (centres undefined)	i
CC(C)OC(=O)COc1ccc2c(c1)O/C(=C\c1cc(Cl)cc3c1OCOC3)C2=O	i
COc1ccc(Cl)cc1C(=O)N1CCN(c2ccc(-n3ccnc3)nn2)CC1	i
Cc1nc(-c2cccc(NC(=O)C3CCN(c4ccc(-n5cccn5)nn4)CC3)c2)cs1	i
COc1ccc(S(=O)(=O)NCc2sc(-c3ccccc3Cl)nc2C)cc1F	i
COc1ccc(CN2C(=O)C(=O)c3cc(C)cc(C)c32)cc1OC	i
COc1ccc(C(=O)Cn2nc(C3CCCN(S(C)(=O)=O)C3)n(C)c2=O)cc1 (centres undefined)	i
CC(O)(CNC(=O)/C=C/c1ccccc1)c1cccs1 (centres undefined)	i
Cn1c(=O)c2c(nc(CN3CCN(CCO)CC3)n2CCN2CCOCC2)n(C)c1=O	i
O=C(Cc1ccccc1F)Nc1cc(-n2ccc3ccccc32)ncn1	i
CCOc1cc(/C=C2\SC(=S)N(c3ccc(OC)cc3)C2=O)ccc1O	i
CCC(=O)Oc1ccc2c(c1)O/C(=C\c1cc(OC)ccc1OC)C2=O	i
O=C(CN1C(=O)CCC1=O)Nc1nnc(-c2ccsc2)o1	i
O=C(CCC(=O)OCCc1ccccc1)Nc1nccs1	i
Cc1ccc(N2CCCn3c2nc2c3c(=O)n(CC(=O)O)c(=O)n2C)cc1C	i
COc1ccc(N(C)c2nnc(-c3ccc(NC(=O)C(=O)NCC(C)O)cc3)s2)cc1 (centres undefined)	i
O=C(C1COc2ccccc2O1)N1CC(c2nc3ccccc3[nH]2)C1 (centres undefined)	i
CC(C)COc1ccc(-c2noc(CN3C(=O)COc4ccccc43)n2)cc1	i
O=C(NCCC(O)C1CC1)C(=O)NCC1CCCO1 (centres undefined)	i
Cn1c(=O)n(CC(N)=O)c(=O)c2c1nc1n(-c3ccc(F)cc3)c(-c3ccccc3)cn21	i
Cc1cc(C)n(-c2cc(-c3ccccc3)nc3nc(C)nn23)n1	i
COc1ccc(CNC(=O)Nc2ccc3c(c2)CCCN3C(=O)C2CC2)cc1OC	i
CN(C)CCNC(=O)C(=O)NCC1OCCCN1S(=O)(=O)c1ccc2c(c1)OCCO2 (centres undefined)	i
COc1cccc(-c2nc(C#N)c(N3CCN(C(=O)c4ccccc4C)CC3)o2)c1	i
O=C(NCc1nn(C2CCCC2)c(=O)c2ccccc12)c1cccs1	i
Clc1cccc(Cl)c1NC1=NCCN1	i
Cn1cc(CC(=O)N2CCN(C(=O)c3cnn4ccccc34)CC2)c2ccccc21	i
CCc1ccccc1NC(=O)Cn1c(-c2ccc(C)cc2)nc2c(c1=O)CCN(Cc1ccccc1)C2	i
CC1CCN(C(=O)c2cnc3ccccc3c2S(=O)(=O)c2ccc(Br)cc2)CC1	i
CC1CCc2c(sc3nc[nH]c(=S)c23)C1 (centres undefined)	i
C=C1C(=O)O[C@H]2C1[C@H](OC(=O)/C(=C/CO)COC(=O)/C(C)=C/CO)CC(=C)[C@@H]1CC(=O)[C@@H](C)[C@@H]12 (some centres undefined)	i
CCOc1ccc(NC(=O)CCc2csc(NC(=O)c3ccc(=O)[nH]c3)n2)cc1	i
CN1CCOc2ccc(NC(=O)c3cnn(-c4ccccc4)n3)cc2C1=O	i

Continuation:
SMILES	GIRK2 activ
COc1cc(OC)cc(C(=O)N(CCCn2ccnc2)c2nc3c(C)ccc(C)c3s2)c1	i
O=C(NCC1CCN(C2CCCC2)CC1)C(=O)Nc1ccc(OC(F)(F)F)cc1	i
Cc1nc(C)c(-c2ccc(=O)n(CCNC(=O)CCc3c(C)noc3C)n2)s1	i
O=C(Cn1c2ccccc2c2ncn(Cc3nc(C4CC4)no3)c(=O)c21)Nc1ccc(Cl)cc1	i
Cc1cc(C(=O)Nc2ccc(CN3CCN(c4ccccn4)CC3)cc2)no1	i
O=C(CCc1nnc2c(N3CCCCC3)nc3ccccc3n12)NCCc1ccc(Cl)cc1	i
CC(C)Cc1nnc(NC(=O)c2cccc(S(=O)(=O)N3CCOCC3)c2)s1	i
COc1cccc2c1OC(C)C(=O)N(c1cccc(C(F)(F)F)c1)C2 (centres undefined)	i
COc1cc2[nH]c3c(=O)n(CC(=O)N4CCN(c5cc(Cl)ccc5C)CC4)cnc3c2cc1OC	i
O=C(Cn1nc(-c2cccs2)ccc1=O)NCc1ccco1	i
COc1ccc(/C=C2\Oc3cc(OS(C)(=O)=O)cc(C)c3C2=O)cc1OC	i
CCOC(=O)CNC(=O)N1c2ccccc2Sc2ccccc21	i
Cn1nc(N2CCC(C(=O)Nc3cccc4cccnc34)CC2)ccc1=O	i
COc1cc2oc(C)c(C)c2cc1/C(C)=C/C(=O)Nc1cccc(NS(C)(=O)=O)c1	i
COc1ccc(CC(=O)Nc2ccc(Cn3cnc(C(=O)Nc4ccccc4C)c3)cc2)cc1OC	i

Ordered by SMILES length (ascending): part of the list above.
SMILES	GIRK2 activ
O=C(Nc1cnoc1)c1ccc(Cl)s1	i
O=C(Cn1nc(-c2cccs2)ccc1=O)NCc1ccco1	i
O=C(Nc1nccs1)C1CCN(C(=O)NCc2cccs2)CC1	i
O=C(NCc1nn(C2CCCC2)c(=O)c2ccccc12)c1cccs1	i
O=C1CCC(=O)N1c1ccc(S(=O)(=O)NCCc2cccs2)cc1	i
COc1cccc2c1OC(C)C(=O)N(c1cccc(C(F)(F)F)c1)C2 (centres undefined)	i
CCOc1cc(/C=C2\SC(=S)N(c3ccc(OC)cc3)C2=O)ccc1O	i
CCOc1ccc(Cc2nnc(Nc3ccc(OC)c(OC)c3)[nH]c2=O)cc1	i
CC(C)Cc1nnc(NC(=O)c2cccc(S(=O)(=O)N3CCOCC3)c2)s1	i
O=C(NCC1CCN(C2CCCC2)CC1)C(=O)Nc1ccc(OC(F)(F)F)cc1	i
Cn1cc(CC(=O)N2CCN(C(=O)c3cnn4ccccc34)CC2)c2ccccc21	i
COCCn1c(-c2nc(C(=O)Nc3cccc(C(C)=O)c3)cs2)cc2ccccc21	i
O=C(CN1C(=O)c2ccccc2C1=O)N1CCN(C2=NN=C(c3ccccc3)CS2)CC1	i
Cc1ccc(-n2cc(C(=O)N3CCC(NC(=O)c4ccc(C#N)cc4)CC3)nn2)cc1C	i
O=C(Cn1c(=O)n(CCCCC(=O)NC2CCCC2)c(=O)c2ccccc21)Nc1ccc(Cl)cc1	i
Cc1ccc(NC(=O)Cn2c(-c3ccc(F)cc3)nc3c(c2=O)CCN(Cc2ccccc2)C3)cc1	i

The results go on.
SMILES	GIRK2 activ
O=S(=O)(C1CC1)N1CC(c2nc(Cc3ccccc3)no2)C1	i
CCCC(NC(=O)Cc1ccc(OC)cc1Cl)C(=O)Nc1nc2ccccc2[nH]1 (centres undefined)	i
Cc1occc1-c1nnc2n1N=C(c1ccc(-c3cc(Cl)ccc3Cl)o1)CS2	i
COc1ccccc1N1CCN(c2cc(SCC(=O)Nc3ccc(F)c(Cl)c3)ncn2)CC1	i
COc1ccc(C(=O)NCCC(O)C(C)(C)C)cc1 (centres undefined)	i
CNC(=O)C(=O)Nc1ccc(C)c(F)c1	i
COc1ccc(-n2ccn(CC(=O)Nc3cccc(Br)c3)c2=O)cc1	i
O=C(NC1CC(=O)N(c2ccc(F)cc2)C1)c1ccccc1C(F)(F)F (centres undefined)	i
Cn1cnnc1SCCNC(=O)c1cc(-c2ccco2)[nH]n1	i
Cc1ccc(-n2ncc3c2ncn2c(-c4cccs4)nnc32)c(C)c1	i
COc1ccc2oc(=O)c(S(=O)(=O)N3CCCC3)cc2c1	i
COC(=O)c1c(N2C(=O)C=CC2=O)sc2c1CCC2	i
COc1ccccc1C(=O)NCC(C)(O)c1cccs1 (centres undefined)	i
CSc1ccc(CNC(=O)Cn2nc3c(Oc4cccc(C)c4C)nccn3c2=O)cc1	i
COCCn1c(=O)c2c(nc3n(-c4ccc(Cl)cc4)c(C)cn23)n(C)c1=O	i
COc1cccc(C(=O)Nc2cc(C)nn2-c2nc(-c3ccccc3)cs2)c1OC	i
CCOc1cc(/C=C2/SC(=S)N(c3ccc(O)cc3)C2=O)ccc1O	i
CCCc1cnc2c(c1SCC(=O)c1ccc(OC)cc1)c(=O)n(C)c(=O)n2C	i
Cc1cccc(-c2csc3c(=O)[nH]c(N4CCC(C(=O)NCc5ccccc5F)CC4)nc23)c1	i
O=C(COc1ccccc1F)Nc1nnc(C2CC(=O)N(c3ccccc3)C2)o1 (centres undefined)	i
CCSc1nnc(NC(=O)CN2CCN(Cc3nc(C(C)(C)C)cs3)CC2)s1	i
COc1ccc(OC)c(-c2cc(C(=O)Nc3ccc(N4CCCCC4=O)cc3)n(C)n2)c1	i
COC(=O)c1[nH]c(C)c(C(O)=C2C(=O)C(=O)N(CCCN(C)C)C2c2ccncc2)c1C (centres undefined)	i
N#C/C(=C\c1ccc(O)c(O)c1)C(=O)Nc1ccccc1	i
Cc1cccn2c(=O)cc(OCC(=O)c3ccccc3)nc12	i
O=S(=O)(NCC1(O)CCCC1)C1CCCCC1	i
O=C(c1nc2ccccc2s1)N1CCC(CSCc2ccco2)CC1	i
O=S(=O)(NCCC(O)c1ccccc1)c1c(F)cccc1F (centres undefined)	i
CCCc1cc(SCC(=O)N2CCCC2)ncn1	i
O=C(C1=Cc2cc(Cl)ccc2OC=C1)N1CCOCC1	i
COc1ccc(C(=O)CN2CCC(c3cccs3)CC2)cc1	i
COc1cc(C)ccc1S(=O)(=O)NC1CC(C)(C)NC(C)(C)C1	i
CSc1ccccc1C(=O)Nc1cccc(-c2cnc3n2CCC3)c1	i
CCOc1ccccc1NC(=O)NCCc1nc(C2CC2)cc(C(F)(F)F)n1	i
COc1cccc(CN2N=C(C(=O)N3CCOCC3)S(=O)(=O)c3ccc(Cl)cc32)c1	i
COc1ccc(CCNC(=O)NCCC(O)c2cccs2)cc1 (centres undefined)	i
COc1ccc(C)cc1N1CCCn2c1nc1c2c(=O)n(CC(N)=O)c(=O)n1C	i
COc1ccc(NC(=O)CSc2cc(NCc3ccccc3Cl)ncn2)c(OC)c1	i
O=C(O)CC(CC(=O)NCCc1ccsc1)c1cccs1 (centres undefined)	i
COc1ccc2c(c1)CCN(C(=O)Cc1csc(-n3cccc3)n1)C2	i
Cc1ccc(NC(=O)Nc2ccc(CC(=O)N3CCOCC3)cc2)cc1C	i
O=C(c1cccs1)N1CCN(Cc2nc(-c3ccccc3)cs2)CC1	i
CCCn1c(-c2cccc([N+](=O)[O-])c2)nc2c(c(=O)c3ccccc3n2C)c1=O	i
O=C(COc1ccc(C(=O)c2ccccc2)cc1)Nc1cc(N2CCOCC2)ncn1	i
CCN1CCN(S(=O)(=O)c2ccccc2[N+](=O)[O-])CC1	i
CCc1cccc(C)c1NC(=O)CSc1nccc(-c2ccc(C)c(C)c2)n1	i
COC(=O)c1sccc1S(=O)(=O)N1CCC(Oc2ncccc2Cl)CC1	i
CCN(c1ccsc1C(=O)N1CCCCC1)S(=O)(=O)c1ccccc1	i
O=C(c1cc(Cl)cc(Cl)c1)N1CC(c2nc(-c3cccnc3)no2)C1	i
Cc1ccc(-c2nc(C#N)c(N3CCN(C(=O)c4ccc(Cl)cc4)CC3)o2)cc1	i
O=C(CSc1cc(-c2ccc(F)cc2)ncn1)NCc1ccc2c(c1)OCO2	i
Cc1nnc(C2CCN(C(=O)c3sc(-n4cccc4)nc3C)CC2)s1	i
O=C(CCCc1ccccc1)N1C2CCCC1CN(Cc1ccccc1)C2	i
Cc1nc(-c2cccs2)sc1CNC(=O)C1CCC1	i
COC(=O)c1sccc1S(=O)(=O)N1CC(c2nc(-c3ccccn3)no2)C1	i
